# gsp ag: gsp mutant agonism. gsp mutant cells, cAMP HTRF, 30 min; control for the full effect not named in the record. Potency, µM (titrated, usually from 76.9 µM), without a hit: at the highest dose activation (cAMP increase), usual class: activators. hit rate 0.13% among 340,000; active = well fitted activation curve with a large enough effect; inconclusive = small, poorly fitted or top-dose-only effect, or another doubt; inactive = no such curve, though single readings can be large or run the other way; cell line not stated here;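 further: phosphodiesterase inhibitor Ro 20-1724 added with compounds to block cAMP breakdown; potency means the concentration at half of the fitted maximal effect; nearly all actives have a fitted effect of over 60% in size; about a fifth of the inactives were tested at one dose only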
#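 Cells in DMEM/10% FBS with G418 were pretreated with compounds in DMSO plus […] (300 uM stock) for 30 min at 37C. cAMP was measured by HTRF (cAMP-d2 plus anti-cAMP antibody-K) after 30 min at room temperature.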
# gsp antagonist: gsp mutant antagonism; hit rate 0.4% among 340,000; Potency, µM (titrated, usually from 76.9 µM), without a hit: at the highest dose activity change, negative = inhibition, hits mostly inhibitors; gsp-mutant cells, cAMP HTRF, 30 min; control for the full effect not named in the record; active = falling curve of any shape with a large fitted effect; inconclusive = falling curve, mostly with a smaller effect; inactive = flat or rising curve; cell line not stated here;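 further: intracellular cAMP measured with PDE inhibitor Ro 20-1724 present during compound exposure; potency means the concentration at half of the fitted maximal effect; on the % scale 0 is the no-effect control and ±100 the full control effect; nearly all actives have a fitted effect of over 65% in size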
#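 Measurement of cellular cAMP by homogeneous time-resolved fluorescence following a 30 min compound exposure at 37C. The PDE inhibitor […] was present throughout; the assay buffer was DPBS with 0.05% BSA and 0.005% Tween 20.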
# Six1-Eya2 blk: blocks human Six1 binding to Eya2 | AlphaScreen GST-Six1/His-Eya2 binding, biochemical; stronger effect = lower value; control for the full effect not named in the record | activity change, % (concentration not given with the values) | hit rate 0.56% among 360,000 | AID 651725; in the data active = activity change below about -65%; inconclusive = about -30% to -65%; inactive = above about -30%; further: on the % scale 0 is the no-effect control and ±100 the full control effect
# Target sequence (O00167 whole entry, looked up): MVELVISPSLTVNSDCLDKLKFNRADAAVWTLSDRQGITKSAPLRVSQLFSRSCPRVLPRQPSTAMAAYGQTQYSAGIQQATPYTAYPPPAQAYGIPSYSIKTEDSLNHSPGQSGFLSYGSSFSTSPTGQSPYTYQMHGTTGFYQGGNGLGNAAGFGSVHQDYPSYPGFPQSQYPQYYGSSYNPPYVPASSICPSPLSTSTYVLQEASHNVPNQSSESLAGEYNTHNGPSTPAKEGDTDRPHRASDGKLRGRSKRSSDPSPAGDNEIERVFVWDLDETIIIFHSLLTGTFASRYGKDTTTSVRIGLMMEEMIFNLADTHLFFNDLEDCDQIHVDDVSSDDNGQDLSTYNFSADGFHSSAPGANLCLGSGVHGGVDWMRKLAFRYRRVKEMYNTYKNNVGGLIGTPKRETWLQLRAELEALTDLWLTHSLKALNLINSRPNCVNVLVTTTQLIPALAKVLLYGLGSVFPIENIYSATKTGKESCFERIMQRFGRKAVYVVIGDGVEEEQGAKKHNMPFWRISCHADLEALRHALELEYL
# Target sequence (Q15475 whole entry, looked up): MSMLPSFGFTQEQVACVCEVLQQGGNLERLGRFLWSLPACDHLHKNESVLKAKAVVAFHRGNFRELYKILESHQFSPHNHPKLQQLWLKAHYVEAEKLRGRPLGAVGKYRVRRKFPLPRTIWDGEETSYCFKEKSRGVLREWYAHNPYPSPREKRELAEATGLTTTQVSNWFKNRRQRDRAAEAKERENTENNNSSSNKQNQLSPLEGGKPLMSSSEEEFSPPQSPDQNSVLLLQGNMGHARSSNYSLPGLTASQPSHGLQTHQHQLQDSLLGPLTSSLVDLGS
#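 Six1/Eya2 binding was read as AlphaScreen signal after compounds were pinned into GST-Six1 plus His-tagged Eya2 (5X stock 250/500 nM) in pH 8.0 Tris/NaCl/TCEP buffer, beads added, then incubated 1 h, 37 C, dark.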
# CtBP-E1A inh: CtBP/E1A binding inhibition | AlphaScreen GST-E1A/His-CtBP binding, 1536-well; stronger effect = lower value; control for the full effect not named in the record | activity change, % (concentration not given with the values) | hit rate 0.49% among 340,000; in the data active means activity change below about -65%; inconclusive means about -30% to -65%; inactive means above about -30%; further: on the % scale 0 is the no-effect control and ±100 the full control effect
#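 In 5 uL wells, 23 nL compound meets equimolar GST-E1A and His-CtBP (5X stock 125 nM each) for 2 h, 37 °C. Beads (5X, 50 ug/mL) then 1 h, 37 °C, dark.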
# D2 ag: activates the human D2 dopamine receptor; P14416; DiscoveRx PathHunter D2 beta-arrestin, luminescence, 90 min; 100% = 57 uM dopamine signal; activation, % (concentration not given with the values); hit rate 0.084% among 360,000; in the data active = activation above about 40%; inconclusive = about 15% to 40%; inactive = below about 15%; further: compound concentration not given in the record; the text of the record calls up to 30% inactive
#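 Agonist mode: compounds alone added to overnight-plated D2 PathHunter cells for 90 min at 37 C, with 57 uM final dopamine (EC100) defining full response. Beta-arrestin recruitment detected by chemiluminescent reagent, read after 1 h at ambient temperature.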
# D2 PAM: human D2 receptor positive allosteric modulation; P14416; DiscoveRx D2 beta-arrestin cells, luminescence, 90 min; 100% = 57 uM dopamine signal; potentiation, % (concentration not given with the values); hit rate 0.23% among 360,000; active = potentiation of 50% or more; inconclusive = 30% to 50%; inactive = 30% or less;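 further: compound concentration not given in the record; tested on top of an EC20 dose of dopamine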
#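 PathHunter beta-arrestin assay in DiscoveRx D2 cells. Compounds were added with an EC20 of dopamine (50 nM final) for 90 min at 37 deg C. Luminescence was read 1 h after detection reagent, with 57 uM dopamine as the EC100 control.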
# * hit, by the source's call; ? = inconclusive; . = no result given; [ ] = dose if it differs, or a comment. No enrichment for hits (roughly 1.4% active in at least one column).
D2 ag	CtBP-E1A inh	gsp antagonist	Six1-Eya2 blk	D2 PAM	gsp ag	Compound
0.3	2	-7%	0	-13	.	O=C(C1=C[C@H](c2ccc3c(c2)OCO3)C[C@H](OCc2ccc(CO)cc2)O1)N1CCOCC1
-2.1	-14	-14%	-25	-1	0%	COc1ccc(NS(=O)(=O)c2cccc(C(=O)NNC(=O)c3cc(C)oc3C)c2)cc1
-2.5	3	2%	1	1	14%	COc1ccc(N2CCN(C(=O)c3ccncc3)CC2)cc1
-1.6	-1	-4%	-3	-7	-18%	COc1ccc([C@H]2/C=C\CN(C(=O)C3CC3)[C@@H](C)C(=O)N2Cc2ccc(F)cc2)cc1
-1.0	2	2%	-3	-5	?	COc1ccc(S(=O)(=O)NCc2ccc3c(c2)OCO3)cc1C(=O)O
-0.3	-2	7%	-20	-1	-7%[15.4 µM]	O=C1CCCN2N=C(SCC(=O)Nc3ccc(Cl)cc3)SC2=N1
-2.1	20	-6%	-16	-5	1%[15.4 µM]	O=C1C(Nc2ccccc2)=C2CCCC=C2N1c1ccccc1
3.4	.	7%	0	11	-19%	Cc1ccc(NC(=O)C2C3CCC(O3)C2C(=O)O)cc1C (centres undefined)
-2.1	-13	9%	-2	-8	12%	C#CCOCCOCCOCCNc1nc(N2CCN(C(=O)[C@H](CCCCN)n3cc([C@@H](N)CC(C)C)nn3)CC2)nc(N2CCN(C(=O)[C@H](CCCCN)n3cc([C@@H](N)CC(C)C)nn3)CC2)n1
-6.7	-14	-14%	-5	-11	?	CN1CCSc2ccc(C(=O)NCc3ccccc3)cc21
3.1	-12	3%	1	-10	0%	Cc1cc(NC(=O)Nc2ccccc2[N+](=O)[O-])n(C)n1
3.4	4	4%	0	-1	?	COc1ccc(-c2cc(-c3cccs3)c(C#N)c(SCC(=O)NCc3ccccc3)n2)cc1
-2.8	3	9%	1	-8	.	COC(=O)[C@@H]1C[C@@H]2CC[C@@H](O)C[C@@H]2N1Cc1ccc(C(F)(F)F)cc1
-7.4	6	-17%	-1	-3	-21%[15.4 µM]	CCOC(=O)Cn1c(=NC(=O)C(C)C)sc2c(C)cc(C)cc21
3.0	-26	?	-26	-3	29%	CC1CCCC/C1=N/Nc1ccc([N+](=O)[O-])cc1[N+](=O)[O-] (centres undefined)
-6.7	-3	.	-11	-28	.	Cc1nc2c(OCc3ccc(C(F)(F)F)cc3)cccn2c1N(C)CC1CC1
-0.6	-2	8%	-1	-5	-18%[15.4 µM]	CCCS(=O)(=O)Nc1c(C(=O)O)[nH]c2ccc(OC)cc12
-2.9	9	1%	16	-2	-4%	CCOP(=O)(OCC)/C(=N/OC(=O)c1cccc([N+](=O)[O-])c1)C(N)=O
2.2	0	2%	-2	5	-50%[inhibitor]	COc1ccc2nc(NC(=O)C(NS(=O)(=O)c3cccs3)C(C)C)sc2c1 (centres undefined)
-4.2	-7	12%	3	-5	-8%	CC1(NC(=O)CSc2nnc(-c3ccco3)n2Cc2ccccc2)CCS(=O)(=O)C1 (centres undefined)
1.1	.	?	3	2	?	COc1cc2c(-c3ccc4[nH]ccc4c3)c(-c3ccc(C#N)cc3)oc(=O)c2cc1OC
6.2	24	7%	7	-5	?	COc1ccc(-c2cc(C(=O)Nc3cc(C)n(Cc4ccc(Cl)cc4)n3)no2)cc1OC
4.5	-11	-7%	-4	4	-23%	Cc1ccc(-c2nnn(CC(=O)Nc3ccc4nn(-c5ccccc5)nc4c3)n2)o1
-4.2	-3	6%	8	-8	?	CCN1CCN(c2ncnc3c2cnn3-c2ccc(Cl)cc2)CC1
-1.6	8	3%	-2	-1	-4%	CCOC(=O)C1(CCc2ccccc2)CCN(C(=O)CN2CCOC2=O)CC1
-0.2	10	5%	3	-2	?	Cn1nnnc1SCc1cc(=O)n2ccsc2n1
-2.9	1	-7%	-8	-25	-1%	O=C(COC(=O)CCC(=O)c1cccs1)NCc1ccco1
-3.4	4	6%	3	-2	4%	COc1ccc(C(=O)NCCNC(=O)c2cnccn2)cc1OC
-3.1	-26	-12%	?	-30	26%	Cc1ccc(CN2CCN(/N=C/c3ccco3)CC2)c(C)c1
-1.5	-1	6%	-2	8	4%	C=CCn1c(SCC(=O)Nc2cc(C)ccc2OC)nnc1-c1ccco1
-0.5	12	-5%	1	5	9%[15.4 µM]	CCOC(=O)NC(=O)CSc1ccc(C)cc1C
-4.8	-18	.	-4	-2	.	Cc1noc(C)c1NC(=O)N(C)C[C@H]1OCc2cnnn2CCCC(=O)N([C@H](C)CO)C[C@H]1C
-3.8	13	10%	13	-2	-45%[inhibitor]	COc1ccc(OC(=O)COc2ccccc2C)cc1
-1.1	-8	-13%	0	-33	.	Cc1cc(=O)oc2c3c(cc(OCC(=O)NCc4ccccc4)c12)OC(C)(C)CC3
-2.3	1	-35%	1	-66	9%[15.4 µM]	COc1ccccc1N(CC(=O)Nc1ccc(Br)cc1F)S(=O)(=O)c1cccs1
-1.6	-2	17%	0	-2	2%	c1coc(-c2nnc(-c3cccs3)o2)c1
0.6	-8	14%	-16	-14	-1%	O=Cc1c[nH]c2ccc(S(=O)(=O)N3CCOCC3)cc12
-8.2	6	.	3	-13	.	Cc1ccc2nc(-c3ccc(C#N)cc3)c(Cc3cccc(Cl)c3)n2c1
-0.8	9	-25%	0	-8	-53%[inhibitor]	Nc1ncc(C(=O)O)c(-c2ccccc2)n1
0.4	1	16%	4	-3	4%	CC1=C(C#N)C(C)C2=C(CC(C)(C)CC2=O)N1 (centres undefined)
-3.8	.	7%	-21	-5	0%	CCN(CC)CCCN(C(=O)c1cccc(C)c1)c1nc(-c2ccc(OC)cc2)cs1
-1.4	-8	-12%	-5	-12	-2%[15.4 µM]	CCOc1cc(C(C(=O)NCC2CCCO2)N(C(=O)Cn2nnc3ccccc32)c2ccc(OC)c(OC)c2)ccc1O (centres undefined)
-3.0	?	-11%	-28	-5	8%	CC(=O)Nc1nonc1NC(=O)CSc1nc2ccccc2o1
2.8	10	-15%	8	-9	.	N#Cc1ccc(OCC(=O)Nc2ccc(S(=O)(=O)N3CCOCC3)cc2)cc1
5.5	7	-5%	0	16	.	CCOC(=O)C1=CNS(=O)(=O)NC1c1ccc(OC(C)=O)cc1 (centres undefined)
2.7	9	-7%	20	-2	1%[15.4 µM]	O=C(COC(=O)C1CCN(c2ccc(C(F)(F)F)cn2)CC1)Nc1cccc(F)c1
-1.6	-3	3%	2	-9	.	COc1cc([C@H]2c3[nH]c4ccccc4c3C[C@H]3C(=O)N4[C@@H](c5cc(OC)c(OC)c(OC)c5)c5[nH]c6ccccc6c5C[C@H]4C(=O)N23)cc(OC)c1OC
-0.6	-11	10%	-3	-16	-45%[inhibitor]	Cc1nn(CC(=O)NCCCN2CCCC2)c(=O)c2nn(-c3ccccc3)c(C)c12
-4.6	-1	16%	1	-19	-6%	CN(CCCNC(=O)Cn1c(=O)c2cccn2c2ccccc21)Cc1ccccc1
4.1	-4	9%	9	-14	4%[15.4 µM]	CC(C)CN1C(=O)C(=O)N(CC(=O)c2ccc[nH]2)C1=O
3.1	-4	8%	8	-5	2%	CC1CCCCC1NC(=O)CSc1nnc(CC(=O)Nc2ccccc2F)n1C (centres undefined)
-0.8	3	-5%	-11	-26	1%	O=C(NCCc1nc2ccccc2[nH]1)c1ccc(Cl)c([N+](=O)[O-])c1
-4.7	-24	-5%	-17	-7	-5%[15.4 µM]	O=C(CCCCCCCCC(=O)N/N=C/c1ccco1)N/N=C/c1ccco1
-3.2	-1	-18%	-4	-13	8%	Nc1ccc(-n2cnc3cc([N+](=O)[O-])ccc32)cc1
3.8	?	-15%	?	0	-4%[15.4 µM]	COC1=C(Nc2ccccc2OC)C(=O)c2ccccc2C1=O
-3.8	5	2%	-1	22	-24%	N#CC1(NC(=O)COC(=O)c2nc(Cl)ccc2Cl)CCCCC1
2.9	9	-2%	1	-16	-19%	C=CCn1c(-c2ccc([N+](=O)[O-])cc2)n[nH]c1=S
-3.5	4	10%	0	-13	-40%[inhibitor]	O=C(CN1C(=O)CSc2ccccc21)Nc1ccccc1C(=O)N1CCOCC1
-3.7	22	4%	5	-1	?	CC1CC1C(=O)OCC(=O)Nc1ccccc1Oc1ccccc1 (centres undefined)
-0.6	0	-5%	-1	4	4%[15.4 µM]	CCN1CCN(S(=O)(=O)c2ccc(Cl)c(C(=O)Nc3nnc(C)s3)c2)CC1

# 4 compounds out of the list above, sorted by their value in D2 ag, highest first:
D2 ag	CtBP-E1A inh	gsp antagonist	Six1-Eya2 blk	D2 PAM	gsp ag	Compound
2.9	9	-2%	1	-16	-19%	C=CCn1c(-c2ccc([N+](=O)[O-])cc2)n[nH]c1=S
-0.8	3	-5%	-11	-26	1%	O=C(NCCc1nc2ccccc2[nH]1)c1ccc(Cl)c([N+](=O)[O-])c1
-3.8	5	2%	-1	22	-24%	N#CC1(NC(=O)COC(=O)c2nc(Cl)ccc2Cl)CCCCC1
-4.7	-24	-5%	-17	-7	-5%[15.4 µM]	O=C(CCCCCCCCC(=O)N/N=C/c1ccco1)N/N=C/c1ccco1

# Next part:
D2 ag	CtBP-E1A inh	gsp antagonist	Six1-Eya2 blk	D2 PAM	gsp ag	Compound
-2.8	4	7%	6	-4	17%[15.4 µM]	Cc1c(NC(=O)CNCc2ccc3c(c2)OCO3)c(=O)n(-c2ccccc2)n1C
-1.1	4	-6%	4	-7	5%[15.4 µM]	Cc1nc(N)c(Cc2ccc(Cl)cc2Cl)c(N)n1
-2.9	-1	-10%	3	7	-11%	Cc1cc(C)n(Cc2ccc(C(=O)O)cc2)n1
-2.1	2	-5%	1	-6	1%	O=c1[nH]ncn1-c1cccc(C(F)(F)F)c1
-6.1	12	.	6	-4	.	CC1(C(=O)Nc2ccc(Cl)c(Cl)c2)CCN1CCc1ccccc1 (centres undefined)
0.0	7	5%	6	-10	-40%[inhibitor]	CSc1nncc(=O)[nH]1
-2.7	2	-4%	0	-14	1%	NCCCNC(=O)c1cc2ccccc2[nH]1
3.3	2	1%	-1	-4	3%	CC(=O)Nc1ccc(NC(=O)C(C)OC(=O)c2ccc(OCc3c(C)noc3C)cc2)cc1 (centres undefined)
-2.1	-10	-7%	4	-24	?	CCOC(=O)c1[nH]c2ccc(Br)cc2c1NC(=O)CCN1CCC(C)CC1
6.4	1	.	-3	-6	.	Cc1c(C(=O)NCc2ccccc2C(F)(F)F)sc(=O)n1Cc1cccc(C(F)(F)F)c1
-1.2	-10	1%	-8	-6	14%	CC(=O)c1cc(C#N)c(SCC(=O)C(C)(C)C)nc1C
-3.6	.	4%	-2	-3	-5%	COC(=O)c1ccc(C(c2c(C)[nH][nH]c2=O)c2c(C)[nH][nH]c2=O)cc1
-4.6	-5	-32%	6	-5	?	O=C(CSc1nnc(CNc2cccc(Cl)c2)o1)OC1CCCCC1
-1.5	-6	-6%	-11	-8	.	COC(=O)C1=C(C)N(Cc2ccccc2)C(=S)N[C@H]1c1ccccc1
